From PubChem
GIRK2 act: activators of human GIRK2 potassium channels | G protein-activated inward rectifier potassium channel 2 (Homo sapiens), P48051 | HEK293-GIRK2 thallium flux, Thallos fluorescence | calls only for hits at 25 µM | 0.05% of 63,000 active | AID 1259325, 2017;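 active = among the strongest 0.2% of first-round signals and kept after retests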;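 note: first round at about 10 µM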
Target sequence (P48051 whole entry, looked up): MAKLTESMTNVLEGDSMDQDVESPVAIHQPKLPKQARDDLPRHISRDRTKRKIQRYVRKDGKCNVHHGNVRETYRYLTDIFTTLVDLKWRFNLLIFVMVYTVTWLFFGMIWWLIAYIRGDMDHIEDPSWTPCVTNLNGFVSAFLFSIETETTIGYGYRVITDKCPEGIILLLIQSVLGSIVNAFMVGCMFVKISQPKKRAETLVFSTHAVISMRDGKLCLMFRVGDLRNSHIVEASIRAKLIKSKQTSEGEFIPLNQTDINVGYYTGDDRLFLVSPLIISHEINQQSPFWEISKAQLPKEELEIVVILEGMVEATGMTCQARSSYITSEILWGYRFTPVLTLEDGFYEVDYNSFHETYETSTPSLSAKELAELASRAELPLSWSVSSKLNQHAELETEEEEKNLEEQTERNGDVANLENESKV
Calls only; i = inactive. This is a subset; rates above refer to the full screens.

GIRK2 act,mol
i,Cc1cc(C)c(S(=O)(=O)N(C)c2ccc(Cl)cc2)cc1N(C)S(=O)(=O)c1ccccc1
i,C1=C(CCNc2nc(N3CCCC3)c3n[nH]nc3n2)CCCC1
i,O=C(NCCO)C1=Cc2cc(Cl)ccc2OC=C1
i,Cc1ccc(NS(=O)(=O)c2n[nH]c(C)c2C(=O)Nc2ccc(C(C)C)cc2)cc1
i,O=C(CC1=NS(=O)(=O)c2ccccc2N1)NCCC1=CCCCC1
i,CCOC(=O)N1CCN(C(c2ccc(F)cc2)c2sc3nc(C)nn3c2O)CC1 (centres undefined)
i,O=C(c1cc2ccccc2o1)N1CCN(C2=NN=C(c3ccccc3)CS2)CC1
i,O=C1/C(=C/c2cc(Cl)cc3c2OCOC3)Oc2cc(OC(=O)N3CCOCC3)ccc21

Structural class: the compounds so far containing sulfur.
GIRK2 act,mol
i,Cc1cc(C)c(S(=O)(=O)N(C)c2ccc(Cl)cc2)cc1N(C)S(=O)(=O)c1ccccc1
i,Cc1ccc(NS(=O)(=O)c2n[nH]c(C)c2C(=O)Nc2ccc(C(C)C)cc2)cc1
i,O=C(CC1=NS(=O)(=O)c2ccccc2N1)NCCC1=CCCCC1
i,CCOC(=O)N1CCN(C(c2ccc(F)cc2)c2sc3nc(C)nn3c2O)CC1 (centres undefined)
i,O=C(c1cc2ccccc2o1)N1CCN(C2=NN=C(c3ccccc3)CS2)CC1

Arranged by molar mass (rising): part of the list above.
GIRK2 act,mol
i,O=C(NCCO)C1=Cc2cc(Cl)ccc2OC=C1
i,C1=C(CCNc2nc(N3CCCC3)c3n[nH]nc3n2)CCCC1
i,Cc1ccc(NS(=O)(=O)c2n[nH]c(C)c2C(=O)Nc2ccc(C(C)C)cc2)cc1
i,O=C1/C(=C/c2cc(Cl)cc3c2OCOC3)Oc2cc(OC(=O)N3CCOCC3)ccc21

Remaining list, next part:
GIRK2 act,mol
i,O=C(NCCC1=CCCCC1)C(=O)Nc1ccc(C(F)(F)F)cc1
i,CC1(C)C(/C=C/Nc2ccccc2)=[N+](CCCCCC(=O)O)c2ccc(S(=O)(=O)[O-])cc21
i,CCc1nnc2c(S(=O)(=O)N(Cc3cccc(OC)c3)c3ccccc3)cccn12
i,COC(=O)c1ccc(C2CCN(C(=O)/C=C/c3ccccc3)CC2)cc1
i,O=C(c1ccc2c(c1)OCO2)N1CCN(CC(O)c2cccs2)CC1 (centres undefined)
i,COC(=O)c1ccc(COc2cc(=O)n3cccc(C)c3n2)o1
i,COc1ccccc1OCCNC(=O)c1ccc(-n2nc(C)c(C)c2C)nc1
i,O=C(CN1CC(c2nc(-c3cccc(Cl)c3)no2)C1)Nc1ccc(Br)cc1
i,Oc1cccc2ccc(N3CCN(c4ccccc4)CC3)nc12
i,O=C(C(=O)N1CCCCCC1)c1cn(CC(=O)N2CCOCC2)c2ccccc12
i,C#CCCNC(=O)Cn1ccc2ccccc21
i,Cc1c(C(=O)NCCc2csc(-n3cccn3)n2)cnn1-c1ccccc1
i,Cc1cc(C)c2c(N)c(-c3cc(=O)oc4ccc(O)cc34)sc2n1
i,Cc1nnsc1C(=O)Nc1ccc(CC(=O)NCc2cccs2)cc1
i,COCCCNC(=O)c1ccc(Cn2c(=O)[nH]c3ccccc3c2=O)cc1
i,O=C(Nc1cccs1)Nc1nc(-c2cc3ccccc3oc2=O)cs1
i,COc1ccc(OC)c(NC(=O)Cn2cccc(-c3nc(-c4ccccc4)no3)c2=O)c1
i,Cc1ccc(NC(=O)Cn2[nH]c(-c3ccc(Cl)cc3)cc2=O)c(Cl)c1
i,O=C(Nc1nccs1)C1CCN(C(=O)C2COc3ccccc3O2)CC1 (centres undefined)
i,CC(=O)Nc1ccc(C(=O)NCC#CCOc2cccc(C(F)(F)F)c2)cc1
i,COc1c(C)cc(S(=O)(=O)NCC2CCCO2)c(C)c1C (centres undefined)
i,CC(C)=CCc1ccc2c(C3=C(O)C(=O)C(c4c[nH]c5cc(CC=C(C)C)ccc45)=C(O)C3=O)c[nH]c2c1
i,CC1(C)Cc2cccc(OCC(=O)N3CCC(c4nnc(-c5ccco5)o4)CC3)c2O1
i,O=C(Nc1nccs1)C1CCN(C(=O)Nc2ccc3c(c2)OCO3)CC1
i,CCOc1ccc(NC(=O)Cn2c(C)cc(C)c(-c3nc(-c4ccccc4)no3)c2=O)cc1
i,CSc1cccc(NC(=O)Nc2ccc(Nc3ccc(C)nn3)cc2)c1
i,CC(=O)Nc1ccc(NC(=O)C(=O)NCCCN2CCN(c3ccccc3)CC2)cc1
i,O=C(NCc1ccccc1)Nc1ccc2c(c1)N(S(=O)(=O)c1ccccc1)CCC2
i,COc1ccc2cc(S(=O)(=O)N3CCc4ccccc4C3)c(=O)oc2c1
i,O=C(COc1ccccc1F)NCC1(O)CCOc2ccccc21 (centres undefined)
i,Cc1noc(C)c1S(=O)(=O)NCCn1cnc(-c2ccccc2)cc1=O
i,O=C(Nc1sc2c(c1-c1nc3ccccc3s1)CCCC2)c1ccc2ccccc2c1
i,CCCNC(=O)C1CCCN(c2nc3ncn(CC(=O)Nc4ccc(Cl)cc4)c(=O)c3s2)C1 (centres undefined)
i,COC(=O)COc1ccc2c(c1)O/C(=C\c1cc(Cl)cc3c1OCOC3)C2=O
i,Cc1ccc(C)c2sc(N(C)CC(=O)Nc3ccccc3C(N)=O)nc12
i,O=C(Nc1cccs1)N1CC(c2nc(Cc3ccccc3)no2)C1
i,CCC(C)NC(=O)Cn1c(=O)c(S(=O)(=O)c2ccccc2)cc2ccccc21 (centres undefined)
i,CC(C)(C)c1cc(NC(=O)c2cc3n(n2)CCCO3)on1
i,CNc1ncc([N+](=O)[O-])c(N)n1
i,COc1ccc(NC(=O)CN(C)c2nc3c(Cl)cccc3s2)c(OC)c1
i,O=C(NCCCc1ccccc1)c1nnn(-c2ccc(Cl)cc2)n1
i,Cc1ccc2c(=O)c(C(=O)N3CCCC3)cn(CC(=O)NCc3ccc4c(c3)OCO4)c2n1
i,O=C(Nc1nc(-c2cccnc2)cs1)c1cnn2c1OCCC2
i,Cc1cc(NC(=O)c2cc3ccccc3oc2=O)n(C)n1
i,O=C(Cn1c(=O)oc2ccccc21)Nc1ccc2c(c1)CCCN2C(=O)c1cccs1
i,N#Cc1ccc(C(=O)N(CCN2CCOCC2)c2nc3ccc(Cl)cc3s2)cc1
i,COc1cccc2sc(N(C)CC(=O)Nc3ncc(C)s3)nc12
i,O=C(c1ccc(-n2cnnn2)cc1)N1CCCc2ccccc21
i,COc1ccccc1OCCCCn1c(CO)nc2ccccc21
i,CCOc1ccc(CCNc2nccn(-c3ccccc3OC)c2=O)cc1OCC
i,COc1ccc2c(c1)c(CC(=O)NCCCNS(=O)(=O)c1ccc(F)cc1)c(C)n2C(=O)c1ccc(Cl)cc1
i,CCCc1cnc2c(c1SCC(=O)NCc1ccccc1)c(=O)n(C)c(=O)n2C
i,C/C=C/Cn1c(=O)c2c(nc3n(-c4ccccc4)c(C)cn23)n(C)c1=O
i,CCCCCCC(=O)S[C@@H](COP(=O)([O-])OCC[N+](C)(C)C)CSC(=S)CCCCCC
i,O=C1OC[C@@H](Cc2cccc(O)c2)C1Cc1cccc(O)c1 (some centres undefined)
i,COc1nn(C)cc1C(=O)Nc1ccc(-n2nnc(C(N)=O)n2)cc1

More records.
GIRK2 act,mol
i,CS(=O)(=O)N1CCC(C(=O)Nc2cc(-n3ccc4ccccc43)ncn2)CC1
i,CCc1ccccc1NC(=O)c1ccc(OC)nn1
i,O=C(Nc1ccc(-n2nnn(CC(=O)N3CCOCC3)c2=O)cc1)C1CC1
i,CCc1nc2sc(C(c3ccc(Cl)cc3)N3CCCC3)c(O)n2n1 (centres undefined)
i,O=C1Cc2cc(NC(=O)c3ccsc3)ccc2N1
i,COc1ccc(CNC(=O)NCC2(c3ccc(F)cc3)CC2)cc1
i,COc1ccc(-c2noc(-c3ccc(=O)n(CCc4c(C)noc4C)n3)n2)cc1F
i,COc1ccc(S(=O)(=O)NCCc2nc(-c3ccco3)cn2C)c(C)c1
i,O=C(NN1CCOCC1)c1csc2nc(-c3ccc(F)cc3)cn12
i,Cc1cc(N2CCN(C(=O)COc3ccc4c(c3)OCO4)CC2)ncn1
i,COc1cccc(C(=O)Nc2cc(C)nn2-c2nc(-c3ccc(C)cc3)cs2)c1OC
i,CSc1cccc(NC(=O)Cn2cccc(-c3nc(-c4ccc(Cl)cc4)no3)c2=O)c1
i,COc1cccc(OCC(=O)Nc2ccc(S(=O)(=O)N3CCN(c4cnccn4)CC3)cc2)c1
i,COc1ccc(N2CCN(CCNC(=O)C(C)(C)C)CC2)cc1
i,CN(C)c1ncc(NC(=O)Cc2ccc(Cl)cc2)cn1
i,CCOC(=O)c1ccccc1NC(=O)COc1nc(C)nc2ccccc12

Structures from the list above with an aryl thioether with sulfur outside any ring:
GIRK2 act,mol
i,CSc1cccc(NC(=O)Nc2ccc(Nc3ccc(C)nn3)cc2)c1
i,CCCc1cnc2c(c1SCC(=O)NCc1ccccc1)c(=O)n(C)c(=O)n2C
i,CSc1cccc(NC(=O)Cn2cccc(-c3nc(-c4ccc(Cl)cc4)no3)c2=O)c1

(listing goes on)
GIRK2 act,mol
i,Cc1nn(C(C)(C)C)c(OC(=O)CC(C)C)c1S(=O)(=O)c1ccccc1
i,COc1ccc(Cl)cc1C(=O)NCCC(O)c1cc(C)oc1C (centres undefined)
i,COC(=O)Cn1cnc2nc(N3CCCC(C(=O)NC(C)C)C3)sc2c1=O (centres undefined)
i,CCn1c(=O)c2c(nc(-n3nc(C)cc3C)n2CCOC)n(C)c1=O
i,CC(C)NC(=O)CSc1nnc(N2CCN(C(=O)c3c[nH]c4ccccc34)CC2)s1
i,COc1cccc2cc(C(=O)N3CCN(c4cc(N5CCCCC5)ncn4)CC3)oc12
i,COc1ccc(Br)c(C(=O)NCc2ccc(C(O)c3cccs3)s2)c1 (centres undefined)
i,COc1cccc(C(=O)Nc2nnc(-c3cc4cccc(OC)c4o3)o2)c1OC

Entries shown so far containing a CF3 group:
GIRK2 act,mol
i,O=C(NCCC1=CCCCC1)C(=O)Nc1ccc(C(F)(F)F)cc1
i,CC(=O)Nc1ccc(C(=O)NCC#CCOc2cccc(C(F)(F)F)c2)cc1

Remaining list, next part:
GIRK2 act,mol
i,Cc1sc(NC(=O)CCS(=O)(=O)Cc2ccccc2)c(C#N)c1C
i,COc1cccc(CNC(=O)Cn2cccc(-c3nc(C4CC4)no3)c2=O)c1OC
i,COc1ccc(-c2nnc(SCC(=O)Nc3cccc(C)c3)n2N)cc1OC
i,CS(=O)(=O)N1CCc2nc(NC(=O)C3CCCO3)sc2C1 (centres undefined)
i,CC(C)Sc1ccc(CC(=O)NCC2COC3(CCCCC3)O2)cc1 (centres undefined)
i,O=C(Cn1nc2c(c1NC(=O)c1cc(=O)c3ccccc3o1)CSC2)NCc1ccc(F)cc1
i,COc1ccc(S(=O)(=O)NCCNC(=O)c2ccc(NC(=O)C(C)C)cc2)cc1F
i,O=C(NCCC(O)c1ccccc1)C(=O)NCc1ccccc1Cl (centres undefined)
i,O=S(=O)(NCCOc1ccc(-c2ccc(F)cc2)nn1)c1ccccc1F
i,COC(=O)c1ccccc1NC(=O)C1(C)Cc2ccc(C)cc2C(=O)O1 (centres undefined)
i,O=S(=O)(c1ccc(Br)cc1)c1nnn2c1nc(NCC1CCCO1)c1sccc12 (centres undefined)
i,Cn1cc(-c2ccco2)nc1CCNC(=O)c1ccccc1Br
i,Cc1c(C(=O)N2CCCC(c3nnc(-c4cccs4)o3)C2)cnn1-c1ccccc1 (centres undefined)
i,C/C=C1\C(O[C@@H]2O[C@H](CO)[C@@H](O)[C@H](O)[C@H]2O)OC=C(C(=O)O)C1CC(=O)OCCc1ccc(O)c(O)c1 (some centres undefined)
i,CN(CC(=O)Nc1cccc(OC(F)F)c1)c1nc2c(Cl)cccc2s1
i,COc1ccc(N2CC(C)Cn3c2nc2c3c(=O)n(CC(N)=O)c(=O)n2C)c(OC)c1 (centres undefined)
i,COc1cccc(CNC(=O)c2nnn(-c3cccc(OC)c3)c2-c2cccnc2)c1
i,O=S(=O)(NCCOc1ccccc1)c1cccc(Cl)c1Cl
i,O=C1CN(C(=O)Nc2cccs2)c2ccccc2N1
i,CCOc1ccccc1NC(=O)NCC1CCN(Cc2cccs2)CC1
i,CC(C)(O)c1ccc2c(c1)CCC1C(C)(C(=O)O)CCCC21C (centres undefined)
i,O=S1(=O)CCC(CNS(=O)(=O)c2ccc(F)cc2F)C1 (centres undefined)
i,COc1cccc(-c2noc(CCn3nc(-c4ccc(C(C)C)cc4)ccc3=O)n2)c1OC
i,COc1ccc(-c2cc3c(=O)n(CC(=O)Nc4cc(Cl)ccc4OC)ccn3n2)cc1
i,COc1ccc(OC)c(Nc2c(C(=O)N3CCCC3)cnc3nc(C)ccc23)c1
i,Cc1ccc(S(=O)(=O)N2CCCC(c3nnc(Cc4ccc(F)cc4)o3)C2)cc1C (centres undefined)
i,Cc1noc(-c2cccn3c(=O)n(CC4CCCO4)nc23)n1 (centres undefined)
i,O=C(Nc1ccc(F)cc1)C1CCN(S(=O)(=O)c2ccc(F)cc2)CC1
i,COc1ncc(NC(=O)C2CCN(S(C)(=O)=O)CC2)cn1
i,CC(CCc1ccccc1)NC(=O)c1ccc(Cn2c(=O)[nH]c3ccccc3c2=O)cc1 (centres undefined)
i,Cc1cc(C)n(CC(O)COc2ccc3c(C)cc(=O)oc3c2)n1 (centres undefined)
i,CCOC(=O)Nc1nc(CC(=O)NCc2nc(-c3ccccc3)no2)cs1
i,O=C(NCC1CCN(C(=O)c2ccoc2)CC1)c1cc(=O)c2ccccc2o1
i,C=C1CC[C@@]2(OC1)O[C@H]1CC3[C@@H]4CC=C5C[C@H](O[C@@H]6OC[C@H](O)[C@H](O)[C@H]6O[C@@H]6O[C@@H](C)[C@H](O)[C@@H](O)[C@H]6O)C[C@@H](O)[C@]5(C)C4CC[C@]3(C)[C@H]1[C@@H]2C (some centres undefined)
i,CC1=CC(=C2C(=O)NC(=S)NC2=O)C=C(C)N1CCN1CCOCC1
